Assay outcomes from PubChem.
WT yeast gro inh: growth inhibition of WT yeast, mitochondrial fusion screen; actives 2.1% (n = 190,000); mitochondrial fusion phenotypic screen, WT strain; inhibition, % at 10 µM; in the data active = inhibition above about 58%; tested in S. cerevisiae
HIV peptide binding: inhibitors of HIV fusion peptide binding, primary screen, biochemical, uHTS, fluorescence dequenching (AID 1986); cell-free peptide binding, fluorescence dequenching, 30 min; higher % means a stronger effect; inhibition, % at 20 µM; hits with a dose series show IC50 in µM; actives 0.3% (n = 290,000); in the data active = inhibition mostly above about 52%, no sharp cut-off; inactive = mostly below about 76%; also: some results filed as inactive read as strong as hits
MT stabilizer: stabilizes microtubules in HeLa cells; HeLa tubulin immunostaining HCS, 24 h; share of cells brighter than vehicle mean+2SD; % tubulin-high responders, % at 10 µM; actives 0.83% (n = 200,000);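 active = plate Z-score above 3 for both tubulin-high and condensed-nucleus cell shares, with cell loss under 80%, at 10 µM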;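 also: anti alpha tubulin signal scored within the nucleus-defined area of each cell; some results filed as inactive read as strong as hits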
AID2073: inhibitors of Mint1-CaV2.2 protein interaction, biochemical, HTRF (AID 2073); HTRF protein-protein interaction, Mint1-CaV2.2; higher % means a stronger effect; inhibition, % at 20 µM; hits with a dose series show IC50 in µM; actives 0.19% (n = 290,000); in the data active = inhibition mostly above about 51%, no sharp cut-off; inconclusive = no clear call, values can overlap the other calls; inactive = mostly below about 53%; also: some results filed as inactive read as strong as hits
Yfh1-off respiration: enhancers of respiration in Yfh1-depleted yeast, dose response, Friedreich's ataxia, plus single-dose screen (AID 1465); actives 0.074% (n = 220,000); fold induction at 50 µM; hits with a dose series show EC50 in µM; S. cerevisiae Yfh1-off respiration, WST-1 reduction, 72 h; higher fold induction means a stronger effect;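 active = fold induction of absorbance versus untreated yeast above a set limit, then at least 30% activation at any dose in follow-up; inconclusive = repeats straddling the limit, or above it without dose testing; inactive = fold induction below the set limit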;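 also: activators that raise dye reduction in frataxin-depleted yeast; strong numbers were not always called active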
Dynein cargo inh: blocks dynein driven cargo transport along microtubules. 3617.4 mouse cells, GR-EGFP nuclear translocation imaging; test concentration mostly 20 µM; stimulated with dexamethasone, 1 µM; active compounds read low. z-score, hits read low. actives 0.47% (n = 220,000). AID 1381;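 active = plate z-score of nuclear minus cytoplasmic receptor signal below a set negative limit, without overly bright fluorescence or cell loss, cut at about -3.5 in these data, passing the limit was not always enough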;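 also: z-score of nuclear minus cytoplasmic ring GR-EGFP intensity difference per well; some compounds called inactive have numbers as strong as hits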
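Schedule: 48 h induction, then 1 h compound, then 30 min agonist, 37 °C. Buffer or medium: tetracycline-free induction medium containing charcoal-stripped FBS. Reagent: 1.0 µM final dexamethasone stimulus. Evaluation: nuclear versus cytoplasmic GR-EGFP signal, averaged per well. Signal: high-content fluorescence imaging after fixation.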
Insulin prom up: MIN6 insulin promoter up-regulation; MIN6 insulin promoter-GFP reporter, high-content imaging; active compounds read high; z-score at 5 µM; actives 0.3% (n = 190,000); AID 1625;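 active = z-score above 3 at 5 µM with at least 500 cells counted in the well; inconclusive = wells under 500 cells, flagged as cytotoxic or low count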
Autophagy mod: autophagy modulation, high-content screen. MEF GFP-LC3 puncta imaging; test concentration mostly 10 µM. actives 0.98% (n = 190,000). calls only at 10 µM (by protocol);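 active = percentage of spot-positive cells more than 3 SD above its plate mean, without a fluorescence outlier flag or 80% toxicity; inconclusive = no clear call, values can overlap the other calls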;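 also: spot-positive cell cutoff set from DMSO-treated cells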
WT yeast gro inh mutant strain: recorded beside WT yeast gro inh, whose call it bears; inhibition, %; mitochondrial fusion phenotypic screen, mutant strain inhibition
Dynein cargo inh cytoplasmic EGFP: recorded beside Dynein cargo inh, whose call it bears; z-score; measured here: cytoplasmic GR-EGFP intensity; active compounds read high
Dynein cargo inh nuclear GR-EGFP: second read-out of Dynein cargo inh, no call of its own (marks repeat the call); z-score; measured here: nuclear GR-EGFP intensity;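 lower value marks the stronger effect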
Dynein cargo inh cell count: also measured in Dynein cargo inh; calls as there; z-score; measured here: cell count per field
Insulin prom up cell count: also measured in Insulin prom up; calls as there; cell count; measured here: cytotoxicity, nuclei count;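 total cells summed across four imaged fields per well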
MT stabilizer Hoechst-high %: recorded beside MT stabilizer, whose call it bears; % Hoechst-high responders; measured here: nuclear condensation Hoechst responders;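 share of cells brighter than vehicle mean plus two SD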
MT stabilizer cytotoxicity %: recorded beside MT stabilizer, whose call it bears; toxicity, %; measured here: cytotoxicity by cell density;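 0% = mean cell density of plate MIN control wells and 100% = no cells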
Autophagy mod cell loss 18 h: recorded beside Autophagy mod, whose call it bears; toxicity, %; measured here: cell loss, nuclei count;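 cell loss after 18 h compound exposure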
An asterisk follows results filed as active; i = inactive; ? = inconclusive; . = not tested or not shown.

SMILES	WT yeast gro inh	WT yeast gro inh mutant strain	HIV peptide binding	MT stabilizer	MT stabilizer Hoechst-high %	MT stabilizer cytotoxicity %	AID2073	Yfh1-off respiration	Dynein cargo inh	Dynein cargo inh cytoplasmic EGFP	Dynein cargo inh nuclear GR-EGFP	Dynein cargo inh cell count	Insulin prom up	Insulin prom up cell count	Autophagy mod	Autophagy mod cell loss 18 h
O=c1cc(N2CCc3ccccc3C2)[nH]c(=O)n1C1CCCCC1	12.8	6.4	1.8%	4.0	1.9	3.6	-5.1%	i	-1	-0.342	-0.371	0.804	-0.83	1652	i	18.0
COc1ccc2c(c1)[nH]c1c(N3CCN(Cc4ccc5c(c4)OCO5)CC3)ncnc12	1.2	-14.1	3.7%	3.6	2.9	6.1	0.4%	i	-0.601	-0.234	-0.335	-0.0471	?	.	i	-5.0
O=C(/C=C/c1ccccc1Cl)NC(=S)Nc1ccccc1C(=O)NC1CCCCC1	15.2	27.0	1.6%	2.8	2.0	9.7	?	i	-0.0199	-0.12	0.562	-0.549	-0.34	1508	i	-25.0
Cc1nnc2c(Oc3ccccc3)nc3ccccc3n12	6.1	9.8	-3.3%	1.5	1.4	2.1	-3.6%	i	-0.528	-0.231	-0.896	0.0233	-0.38	1436	i	1.0
CCCCC[n+]1ccn(-c2nc3ccccc3nc2[N-]S(=O)(=O)c2ccc(C)cc2)c1	-0.8	-9.8	6.1%	3.5	1.4	10.1	-2.1%	i	0.482	-0.0814	-0.323	-0.2	0.55	1546	i	3.9
CC(=O)c1cn(CC(=O)Nc2c(C)cccc2C)c2ccccc12	8.1	16.8	1.6%	5.0	1.5	7.0	-1.6%	i	0.178	-0.256	-0.551	-0.123	-1.15	1276	i	15.3
N/C(=N\c1nc2c(c(=O)[nH]1)CCC2)Nc1ccccc1C(F)(F)F	-25.1	-3.1	1.4%	2.7	2.8	10.1	-1.0%	i	-0.139	-0.208	0.356	0.564	-0.51	1244	i	12.6
CCOc1cc(NC(=S)NCC2CCCO2)c(OCC)cc1NC(=O)c1ccccc1C (stereo not drawn)	-6.1	8.3	-0.1%	0.9	1.4	9.0	-7.2%	i	-1.15	-0.302	-0.482	0.882	-0.26	1616	i	-0.8
CCOC(=O)c1c(C)nc2sc3c(c2c1-c1ccc(OC)cc1)NC(c1ccc(OC)cc1)NC3=O (stereo not drawn)	40.7	-3.9	1.4%	1.0	1.2	8.3	17.0%	i	-0.741	0.46	-0.206	0.2	-1.35	1485	i	32.8
COc1ccc(Oc2coc3cc(OC(=O)c4cccs4)ccc3c2=O)cc1	9.9	-8.9	-0.7%	2.1	1.4	6.8	2.2%	i	-0.0629	-0.174	-0.222	-0.0716	0.31	1586	i	1.8
Cc1[nH]n(-c2ccccc2)c(=S)c1C=Nc1cccc([N+](=O)[O-])c1	9.8	2.9	28.2%	1.4	1.3	7.1	34.3%	i	0.0642	-0.0458	0.77	0.0141	0.33	1635	i	-29.4
CCN(CC)CC(=O)c1c[nH]c2ccc(OC)cc12	-1.4	-7.3	3.5%	2.4	1.8	7.7	-0.7%	i	-0.475	-0.205	0.467	0.439	-1.13	1466	i	11.6

Reprinted from the part before: 2 entries, followed by the next part.
SMILES	WT yeast gro inh	WT yeast gro inh mutant strain	HIV peptide binding	MT stabilizer	MT stabilizer Hoechst-high %	MT stabilizer cytotoxicity %	AID2073	Yfh1-off respiration	Dynein cargo inh	Dynein cargo inh cytoplasmic EGFP	Dynein cargo inh nuclear GR-EGFP	Dynein cargo inh cell count	Insulin prom up	Insulin prom up cell count	Autophagy mod	Autophagy mod cell loss 18 h
Cc1[nH]n(-c2ccccc2)c(=S)c1C=Nc1cccc([N+](=O)[O-])c1	9.8	2.9	28.2%	1.4	1.3	7.1	34.3%	i	0.0642	-0.0458	0.77	0.0141	0.33	1635	i	-29.4
CCN(CC)CC(=O)c1c[nH]c2ccc(OC)cc12	-1.4	-7.3	3.5%	2.4	1.8	7.7	-0.7%	i	-0.475	-0.205	0.467	0.439	-1.13	1466	i	11.6
CCCCCCC(=O)Nc1ccc(C(=O)N/N=C/c2cccnc2)cc1	13.5	-16.6	1.6%	2.7	1.4	4.4	18.8%	i	0.0184	-0.191	0.581	-0.0735	0.86	1593	i	-31.7
COC(=O)CC1C(=O)NCCN1C(=O)Nc1ccc(Cl)cc1 (stereo not drawn)	10.3	1.2	-0.7%	2.1	1.1	9.6	-1.8%	i	1.52	-0.184	-0.239	-1.43	-0.87	1666	i	-3.3
COc1ccc(Cn2nnnc2C(c2ccccc2Cl)N2CCC(C(N)=O)CC2)cc1 (stereo not drawn)	-4.2	-25.9	-1.6%	3.3	1.1	2.8	-7.1%	i	0.741	-0.245	-0.712	0.0641	-0.16	1552	i	-9.7
CCOc1ccc(/C=N/n2c(SC)nnc2-c2ccccc2)cc1OCC	1.9	11.9	-2.3%	2.4	1.3	11.7	-1.7%	i	-0.693	-0.114	-0.391	1.19	-0.27	1693	i	-0.4
COC(=O)c1cc(OC)ccc1-c1ccc(OC)cc1	-9.6	-6.6	-1.7%	5.9	2.6	3.2	6.5%	i	0.331	-0.22	0.284	0.273	-0.2	1547	i	1.5
CCOC(=O)/C(C#N)=C\C1=C(N2CCCC2)CC(C)(CC)OC1 (stereo not drawn)	-6.2	6.1	4.5%	3.5	1.3	3.7	11.6%	i	2.05	0.0184	0.813	-1.25	-0.29	1209	i	6.8
Cc1ccc(OC(=O)c2cccc(C(=O)Oc3ccc(C)cn3)n2)nc1	20.3	9.9	-0.1%	3.6	2.5	6.6	-2.1%	i	-0.478	-0.161	0.105	-0.292	1.28	1543	i	8.7
C/C(=N\Nc1nc(N)cc(Cl)n1)c1cccc([N+](=O)[O-])c1	4.5	-5.8	-0.7%	1.4	1.1	3.1	4.0%	i	-0.111	0.367	-0.134	0.00399	-1.14	1316	i	-3.9
O=C(CCSc1ccc(Cl)cc1)N1CCCCCC1	1.5	7.1	-1.6%	0.7	1.6	8.9	-6.8%	i	-0.0833	-0.212	-0.441	-0.312	-0.47	1653	i	1.2
CN(C)CCNC(=S)Nc1cccc(Cl)c1	10.6	4.6	-4.8%	1.8	1.6	6.5	-36.9%	i	-0.109	-0.195	-0.25	1.09	0	1430	i	-2.4
COc1ccc(C(=O)c2oc3nc(C)cc(C)c3c2N)cc1	-4.8	-3.7	-3.5%	4.9	2.3	8.9	3.2%	i	-0.376	0.255	-0.109	0.474	0.16	1305	i	-5.6
Cc1ccc(OCC(=O)N/N=C\c2ccco2)c(C)c1	8.3	16.3	2.2%	4.2	1.8	6.8	-8.5%	i	0.677	-0.244	-0.594	-0.656	-0.22	1648	i	3.5
COc1ccc(/C=C(\NC(=O)c2ccccc2)C(=O)N/N=C/c2ccncc2)cc1	-19.6	-15.4	-1.4%	1.6	1.9	6.8	6.0%	i	-0.509	-0.0961	0.137	1	.	.	i	15.3
CC(NC(=O)C(=O)NN=C1CCCCCC1)c1ccccc1 (stereo not drawn)	-3.4	12.9	-2.9%	1.2	1.2	10.2	-1.9%	i	-0.156	-0.199	0.0841	0.0256	-0.55	1553	i	21.4
COc1ccccc1N/C(=N/S(=O)(=O)c1ccc(C)cc1)c1ccc(Cl)cc1	22.2	26.5	-2.5%	2.7	2.3	8.0	-3.1%	i	0.992	-0.171	0.887	-0.511	-0.64	1586	i	11.0
CC(C)N=C(NC#N)SCc1ccc(Br)cc1	1.4	8.5	-2.8%	3.1	2.5	2.1	-7.2%	i	-0.285	-0.146	0.628	0.0516	-0.92	1419	i	6.9
O=C(CCS(=O)(=O)c1ccc(Br)cc1)N1CCN(c2ccccc2F)CC1	-1.1	-4.0	0.4%	2.2	1.0	7.3	-6.6%	i	1.97	-0.116	0.943	-1.61	-0.52	1363	i	6.7
Cc1ccc(/C=N/NC(=O)c2cc3c(ccc4ccccc43)o2)cc1[N+](=O)[O-]	0.6	-7.8	-5.1%	2.2	1.0	9.3	1.8%	.	-0.286	-0.223	0.291	0.577	0.29	1561	i	37.5
CCCCCCCC(=O)NNC(=O)CCC(=O)O	8.4	16.4	-1.6%	3.5	1.3	4.4	-4.7%	.	1.51	-0.225	0.85	-1.18	0.3	1637	i	-2.1
N#CCSc1nc2scc(-c3cccs3)c2c(=O)n1CCc1ccccc1	1.4	-5.4	0.6%	3.1	3.9	13.8	0.1%	i	1.03	-0.449	0.308	-0.103	-1.46	1586	i	8.7
COc1cccc(CNCCc2c[nH]c3ccccc23)c1OCc1ccccc1F	-7.4	-0.1	-1.0%	29.5	3.9	35.2	11.8%	i	-0.0873	0.185	0.483	-0.0985	?	.	i	20.6
CC(C)N(CCCNC(=O)C1CCN(S(=O)(=O)N2CCOCC2)CC1)Cc1ccccc1	3.9	12.9	-2.5%	4.9	2.7	6.7	-4.4%	.	0.414	0.412	0.62	-1.43	-0.3	1550	i	3.9
COc1ccc(/C=C(/NC(=O)c2ccccc2)C(=O)N/N=C/c2ccncc2)cc1	-11.1	-3.8	-3.4%	3.8	2.7	6.3	4.2%	i	0.169	-0.197	0.818	0.206	0.36	1606	i	-47.7
CCc1ccc2nc(Nc3nc(COC)cc(=O)[nH]3)nc(C)c2c1	-1.9	-8.4	0.8%	1.8	1.2	4.1	0.9%	i	-0.651	-0.0209	-0.692	0.554	-1.2	1371	i	22.4
NS(=O)(=O)c1ccc(CNC(=O)/C=C/c2ccccc2)cc1	-42.2	-0.3	0.8%	2.2	1.7	10.2	1.2%	i	-0.0316	-0.16	0.38	1.66	-0.52	1489	i	15.9
CCCC(=O)N1CCN(S(=O)(=O)c2cc(Cl)ccc2OC)CC1	12.0	-20.8	0.1%	3.4	0.8	2.5	-4.7%	i	1.05	-0.111	0.244	-0.842	-0.29	1668	i	7.9
O=C(CP(=O)(c1ccccc1)c1ccccc1)Nn1cnnc1	8.1	-1.3	-0.7%	5.1	2.9	13.5	?	i	-0.0114	-0.239	0.186	-0.0135	-0.31	1615	i	2.7

Only part of the results is shown; count on the stated rates, not on these rows.
